# Screening results as filed in PubChem.
# Sfp inh – qHTS Assay for Inhibitors of Bacillus subtilis Sfp phosphopantetheinyl transferase (PPTase); Biochemical Sfp PPTase activity, qHTS; actives 3.5% (n = 310,000); Potency, µM, for inactives: max response, negative = inhibition, hits mostly inhibitors; AID 1490, 2009; active = well fitted inhibition curve with a large enough effect; inconclusive = small, poorly fitted or top-dose-only effect, or another doubt; inactive = no such curve, though single readings can be large or run the other way;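 note: the enzyme is Sfp with the accession as filed and its product quenches rhodamine fluorescence; potency is the fitted concentration of half-maximal effect; 0% = enzyme reaction without inhibitor and -100% = no enzyme wells; top concentration of the series not given in the record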
#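 After 15 min at room temperature with compound, 15 nM Sfp received 5 uM rhodamine-CoA plus 12.5 uM BHQ-2-ybbR (50 mM Hepes pH 7.6, 10 mM MgCl2). Rate came from the fluorescence difference over 30 min, ex 525/em 598 nm.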
# Menin-MLL FL inh – qHTS Assay for Inhibitors Targeting the Menin-MLL Interaction in MLL Related Leukemias: Competition With Fluorescein Labeled MLL-derived Peptide; Fluorescence polarization, fluorescein-MLL peptide displacement from menin; FP activity change, % at 61.4 µM; 290,000 tested, under 10 active; inconclusive = falling polarisation curve, or a change in total fluorescence; inactive = total fluorescence flat and polarisation flat or rising; no compound was filed as active; the % refers to the polarisation; negative = inhibition;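 note: % of control where 0% means no effect; inhibitors lower the polarisation; unlabelled MLL peptide was the positive control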
# TRPV1 PAM – HTS Assay for Compounds that Act as Potentiators of the Vanilloid Receptor 1; Transient receptor potential cation channel subfamily V member 1 (Homo sapiens), Q8NER1; TRPV1-expressing cells, Fluo-8 calcium influx, capsaicin EC20 potentiation; host cell line not named in the record; control for the full effect not named in the record; potentiation, % at 8.33 µM; actives 0.02% (n = 320,000); AID 540277, 2011; active means potentiation above 80%; inconclusive means 30% to 80%; inactive means below 30%; note: 0% is about no effect
#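 TRPV1-expressing cells were cultured overnight at 35.5C and loaded with Fluo-8 calcium dye for 40 to 90 min at room temperature. After a 10 s baseline, compound was added and calcium influx was read kinetically for 3 min (ex 480/em 520 nm).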
# D2 PAM – Beta-Arrestin HTS for Positive Allosteric Modulators of the Human D2 Dopamine Receptor: Potentiators. actives 0.23% (n = 360,000). DiscoveRx D2 beta-arrestin cells, luminescence, 90 min; 100% = 57 uM dopamine signal. potentiation, % (no concentration beside the values); active = potentiation of 50% or more; inconclusive = 30% to 50%; inactive = 30% or less;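 note: compound concentration not given in the record; tested on top of an EC20 dose of dopamine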
# Target sequence (P14416 whole entry, looked up): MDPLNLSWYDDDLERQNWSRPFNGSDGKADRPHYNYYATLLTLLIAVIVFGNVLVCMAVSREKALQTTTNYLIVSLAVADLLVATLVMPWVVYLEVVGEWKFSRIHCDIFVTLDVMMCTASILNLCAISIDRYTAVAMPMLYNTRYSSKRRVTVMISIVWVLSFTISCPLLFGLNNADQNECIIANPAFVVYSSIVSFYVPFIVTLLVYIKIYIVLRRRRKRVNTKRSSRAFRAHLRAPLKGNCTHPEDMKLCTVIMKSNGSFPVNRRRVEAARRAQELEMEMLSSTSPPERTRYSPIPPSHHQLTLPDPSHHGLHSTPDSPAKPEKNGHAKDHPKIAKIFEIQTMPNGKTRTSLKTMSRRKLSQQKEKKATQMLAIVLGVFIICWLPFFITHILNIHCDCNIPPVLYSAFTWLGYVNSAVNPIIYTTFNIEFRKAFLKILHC
#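 D2 cells co-treated with compound plus 50 nM dopamine (EC20) for 90 min at 37 deg C to detect potentiation. Beta-arrestin recruitment was read as enzyme-fragment luminescence after 1 h at ambient temperature. Full response was set by 57 uM dopamine.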
# ClpP mod – qHTS Assay for Activators of ClpP; purified B. subtilis ClpP, FRET peptide cleavage, 20 min; Potency, µM (series often up to 57.5 µM), for inactives: at the highest dose activity change, negative = active; actives 1.9% (n = 340,000); active = well fitted falling curve with a large enough effect; inconclusive = small, poorly fitted or top-dose-only effect; inactive = no such curve, though single readings can be large or run the other way; note: potency is the fitted concentration of half-maximal effect; the source files actives as falling curves though it sought activators and does not explain the sign; nearly all actives have a fitted effect of over 65% in size; many hits overshoot -100%
# Target sequence (P80244 whole entry, looked up): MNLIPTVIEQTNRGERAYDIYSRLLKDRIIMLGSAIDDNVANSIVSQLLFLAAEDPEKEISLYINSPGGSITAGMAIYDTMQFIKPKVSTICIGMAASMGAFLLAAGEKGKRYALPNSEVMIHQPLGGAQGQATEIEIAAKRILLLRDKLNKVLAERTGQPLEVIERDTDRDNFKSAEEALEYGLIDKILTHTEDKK
#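 Purified B. subtilis ClpP, 10 microg/mL final in Tris/HCl pH8 with KCl, BSA, glycerol and Tween-20, cleaved an Abz/nitrotyrosine-quenched decapeptide. Fluorescence (ex 320, em 430) was read at 0 and 20 min at room temperature. Delta was normalized to 5.8 microM ADEP and DMSO/no-enzyme controls.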
# gsp antag – qHTS for Antagonists of gsp, the Etiologic Mutation Responsible for Fibrous Dysplasia/McCune-Albright Syndrome: qHTS; gsp-mutant cells, cAMP HTRF, 30 min; control for the full effect not named in the record; Potency, µM (top dose mostly 76.9 µM), for inactives: at the highest dose activity change, negative = inhibition, usual class: inhibitors; actives 0.4% (n = 340,000); active = falling curve of any shape with a large fitted effect; inconclusive = falling curve, mostly with a smaller effect; inactive = flat or rising curve; cell line not stated here;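 note: intracellular cAMP measured with PDE inhibitor Ro 20-1724 present during compound exposure; potency is the fitted concentration of half-maximal effect; % is set by controls: 0 for no effect and ±100 for the full control effect; nearly all actives have a fitted effect of over 65% in size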
#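 G418-selected cells were plated in DMEM/10% FBS for 16-24 h at 37C, then treated with compounds plus the PDE inhibitor […] (300 uM solution added) for 30 min at 37C. Intracellular cAMP was measured by HTRF after 30 min lysis at room temperature.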
# gsp agonist – qHTS for Agonist of gsp, the Etiologic Mutation Responsible for Fibrous Dysplasia/McCune-Albright Syndrome: qHTS; gsp mutant cells, cAMP HTRF, 30 min; control for the full effect not named in the record; Potency, µM (doses to about 76.9 µM), without a hit: at the top dose activation (cAMP increase), most hits filed as activators; actives 0.13% (n = 340,000); AID 624287, 2012; active = well fitted activation curve with a large enough effect; inconclusive = small, poorly fitted or top-dose-only effect, or another doubt; inactive = no such curve, though single readings can be large or run the other way; cell line not stated here;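 note: phosphodiesterase inhibitor Ro 20-1724 added with compounds to block cAMP breakdown; potency is the fitted concentration of half-maximal effect; nearly all actives have a fitted effect of over 60% in size; about a fifth of the inactives were tested at one dose only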
#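 Cells stably selected in G418 were plated at 2000/well, grown 16-24 hr, then given compounds in DMSO with the PDE inhibitor […] (300 uM solution added) for 30 min at 37C; cAMP was read by HTRF.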
# Numbers without * were called inactive; ? = inconclusive; · = not tested or not shown; & = joins results of further samples; [ ] = another dose, or the depositor's remark. Hits appear at their usual frequency; any-hit rate near 5.1%.
# Below each SMILES: Sfp inh	Menin-MLL FL inh	TRPV1 PAM	D2 PAM	ClpP mod	gsp antag	gsp agonist
1) CC1(C)C/C(=N\NC(=S)Nc2ccccc2F)c2cc(O)ccc2O1
  -9%	-1.7	?	-27	·	·	8%[15.4 µM]
2) CCN(C(=O)COC(=O)c1ccc([N+](=O)[O-])o1)c1cccc2ccccc12
  ·	·	·	8	0.6%	3%	?
3) Nc1cc(-c2ccc(Cl)cc2)nn1S(=O)(=O)c1cccc2nsnc12
  13%	0.0	-12	-1	-3.2%	-20%	0%
4) CCOC(=O)/C(N=Nc1ccc(Cl)cc1)=C(/O)c1ccc([N+](=O)[O-])cc1
  18%	4.8	-4	-5	-11%	0%	-6%[15.4 µM]
5) CC(C)CC(=O)NC(=S)Nc1ccccc1F
  14%	-2.5	2	2	0.9%	11%	-18%
6) O=C(CC(=O)N/N=C/c1c(F)cccc1Cl)NCc1ccccc1
  11%	2.8	8	-4	·	-14%	-57%[inhibitor]
7) Cc1[nH]oc(=O)c1N=Nc1ccc2[nH]c(=O)[nH]c2c1
  ·	·	·	-2	-7.2%	0%	19%
8) O=C(Nc1ccc(Cl)cc1)c1cc2nc(C3CC3)cc(C(F)(F)F)n2n1
  4%	-0.1	5	-8	-201%	3%	-1%
9) CCOc1ccc(/C(O)=C2\C(=O)C(=O)N(CCN(C)C)C2c2cccc(OC)c2OC)cc1Cl (stereo unspecified)
  -2%	1.6	-2	-35	-0.2%	15%	33%
10) Cc1cc(C)cc(NC(=O)CCC(=O)Nc2cc(C)on2)c1
  5%	5.3	21	-12	-0.6%	6%	-29%
11) CCn1c(C)cc(O)c(C(=O)Nc2cccc(Cl)c2)c1=O
  20%	·	-9	-1	0.6%	-4%	0%
12) CN(C)c1ccc(N2[C@@H](CC(=O)O)c3cc(C(F)(F)F)ccc3S2(=O)=O)cc1
  ·	·	·	-11	3.2%&-0.2%	-1%	-2%
13) CCOC(=O)C(O)(CC(=O)Nc1cc(F)ccc1C)C(F)(F)F (stereo unspecified)
  11%	-1.4	5	-1	1.7%	7%	-15%
14) C=CCn1c(COc2cc(C)ccc2C(C)C)nnc1SCC(=O)c1c(N)n(C)c(=O)n(C)c1=O
  13%	8.6	1	-2	·	-12%	-22%[15.4 µM]
15) CCN(CC)C(=O)c1ccccc1NC(=O)CN1C(=O)c2ccccc2C1=O
  17%	0.6	6	-6	-3.3%	-15%	34%[15.4 µM]

# Below each SMILES: Sfp inh	Menin-MLL FL inh	TRPV1 PAM	D2 PAM	ClpP mod	gsp antag	gsp agonist
16) CSc1nc2ncnc(N)c2[nH]1
  -27%	-1.8	-2	-5	-1.9%	6%	-4%[15.4 µM]
17) CCCn1c(N/N=C(C)\C=C\c2ccccc2)nc2c1c(=O)[nH]c(=O)n2C
  40µM*	-0.6	-7	·	·	·	·
18) O=C(O)C(Cc1cc(Cl)ccc1Cl)Sc1nc2ccccc2[nH]1 (stereo unspecified)
  11%	-2.8	-9	-10	-1.5%	9%	-2%
19) O=C(Nc1ccc(F)cc1)c1cc(S(=O)(=O)N2CCOCC2)cs1
  2%	-0.1	-7	-9	0.6%	-2%	1%
20) C[N+]1(CC(O)c2ccccc2)CCCCCC1 (stereo unspecified)
  13%	-10	-5	1	-0.4%	6%	8%
21) CC(NC(=O)CSc1n[nH]c(=O)n1C1CC1)C12CC3CC(CC(C3)C1)C2 (stereo unspecified)
  12%	0.1	-13	23	1.9%	9%	-31%
22) COc1ccc2nc(NNC(=O)COc3ccccc3)sc2c1
  -14%	4.8	17	?	·	·	4%[15.4 µM]
23) CCCCCC(=O)NNC(=O)Nc1ccccc1
  0%	-2.5	9	-9	1.1%	9%	-13%
24) COCCNC(=O)C(c1cccs1)N(C(=O)Cn1nnc2ccccc21)c1cccc(C)c1 (stereo unspecified)
  -6%	-2.1	0	-4	0.3%	4%	-21%
25) O=C(N/N=C/c1cccs1)c1cccc2cc[nH]c12
  4%	?	-21	-10	-3.5%	4%	-1%
26) COc1ccc(Cc2nnc(Nc3c(C)cccc3C)o2)cc1OC
  8%	3.1	6	-2	·	1%	33%
27) CCOc1cc(/C=N/N=C(/N)c2nonc2N)cc(Br)c1OCc1ccc(Cl)cc1
  ?	1.9	-4	-7	2.1%	3%	-2%
28) O=S(=O)(NC1CC1)c1ccc(S(=O)(=O)N(Cc2ccccn2)C2CC2)cc1
  2%	-3.4	11	-10	-2.8%	3%	3%
29) Brc1ccc(/C=N/Nc2ccc3ccccc3n2)cc1
  ?	3.6	0	-4	?	-3%	4%
30) Cc1c(Cl)cccc1NC(=O)CCCn1nc([N+](=O)[O-])cc1C
  11%	1.2	-4	-21	·	-1%	13%[15.4 µM]

# Taken from above:
# gsp agonist with entry 19 is entered as 1%
# TRPV1 PAM with entry 20 is entered as -5

# Continuation:
# Below each SMILES: Sfp inh	Menin-MLL FL inh	TRPV1 PAM	D2 PAM	ClpP mod	gsp antag	gsp agonist
31) CCn1c(CNC(=O)c2cccs2)nnc1SCC(=O)Nc1cc(Cl)ccc1C
  -5%	1.2	-7	-14	-1.1%	2%	19%
32) CCOC(=O)C1CCN(S(=O)(=O)c2nc3nc(C)cc(C)n3n2)CC1
  14%	1.3	6	2	-0.1%	1%	19%
33) O=C1O[C@H]([C@@H](O)CO)C(O)=C1O
  1%	-4.2	-11	-4	0.4%	-2%	·
34) CC(=O)c1cccc(OCc2cc(C(=O)N(C)Cc3cnccn3)no2)c1
  9%	0.7	-6	-1	-0.9%	-8%	-4%
35) CCOC(=O)C1CCN(Cc2nnc(-c3cccc(Br)c3)o2)CC1
  10%	3.3	-9	-8	0.8%	-1%	-30%
36) O=C(Nc1ccc2c(c1)OCCO2)C1CC(c2ccccc2Cl)=NO1 (stereo unspecified)
  3%	-4.0	0	-15	-1.2%	-5%	-38%[inhibitor]
37) CCCn1c(C(Cc2ccccc2)NC(=O)COC)nc2ccccc21 (stereo unspecified)
  10%	0.2	-3	-3	-0.2%	1%	0%
38) CC1=C(C(=O)OC(C)C)C(c2coc3ccccc3c2=O)C2=C(CCCC2=O)N1 (stereo unspecified)
  7%	-0.9	-14	-3	3.5µM*	-2%	?
39) CCS(=O)(=O)N1N=C(c2ccc(NS(C)(=O)=O)cc2)CC1c1ccccc1 (stereo unspecified)
  -2%	?	11	-4	-11%	-1%	12%[15.4 µM]
40) COc1ccc(C2=NC(CO)(CO)CO2)cc1
  -2%	-2.2	-4	-5	·	8%	-2%
41) COc1ccc(OCc2cc(C(=O)N(C)C3CCOC3)no2)c(Cl)c1 (stereo unspecified)
  6%	·	-13	3	-3.2%	-3%	-20%
42) COc1cc(C(=O)NCC(=O)NCCN2C(=O)S/C(=C\c3ccccc3Cl)C2=O)cc(OC)c1OC
  ·	·	?	22	0.3%	-3%	-35%[inhibitor]
43) COc1ccc(C(CC(=O)O)NS(=O)(=O)c2ccc3c(c2)N(C(C)=O)CC(C)O3)cc1 (stereo unspecified)
  6%	4.1	-2	-1	-1.4%	10%	6%
44) CN(C)S(=O)(=O)c1ccc(S(=O)(=O)NCc2cccs2)cc1
  6%	·	2	-10	-1.3%	6%	8%
45) C/C(CC(=O)NCc1ccco1)=N\NC(=O)Cc1ccc(Cl)cc1
  2%	44[activator]	-10	17	0.8%	-12%	21%

# Below each SMILES: Sfp inh	Menin-MLL FL inh	TRPV1 PAM	D2 PAM	ClpP mod	gsp antag	gsp agonist
46) Cn1cccc1/C=C1/SC(=S)N(CC(=O)O)C1=O
  -8%	?	-7	-9	-1.0%	1%	0%
47) CN(CC(=O)Nc1ccccc1Cl)C(=O)COC(=O)c1ccc([N+](=O)[O-])cc1Cl
  ·	·	-7	53*	0.9%	8%	-2%
48) CCOC(=O)c1sc(NC(=O)CCN2CCN(CC)CC2)c(C(=O)OCC)c1C
  2%	-2.8	-3	-14	·	-4%	-12%[15.4 µM]
49) O=C(CCOc1ccccc1)Nc1ccccc1[N+](=O)[O-]
  -6%	-6.7	-2	4	1.1%	1%	9%
50) COc1ccccc1-n1cnnc1SCC(=O)c1ccc[nH]1
  17%	3.7	-13	6	1.1%	-7%	-11%
51) Cc1nn(-c2ccc(F)cc2)c(Cl)c1/C=C(\CCC(=O)O)c1nc2ccccc2s1
  -9%	8.1	1	-10	-4.5%	-14%	5%
52) CCn1cc(C(=O)NCC2CCCO2)c(=O)c2cc(S(=O)(=O)N(C)C3CCCCC3)ccc21 (stereo unspecified)
  4%	1.0	-18	0	-0.5%	-11%	-8%
53) CCOC(=O)C1CCCn2c1nc1sc3c(c1c2=O)CCCC3 (stereo unspecified)
  7%	6.1	-19	-9	-1.6%	?	-7%
54) O=c1oc(-c2cccc([N+](=O)[O-])c2)nc2ccccc12
  -4%	4.6	1	3	-1.1%	-14%	-6%[15.4 µM]
55) Cc1ccnc(NC(=O)CN2C(=O)c3ccccc3C2=O)c1
  9%	-1.7	10	-6	·	-5%	2%
56) CC(c1ccccc1)N1C(=O)c2ccccc2C1O (stereo unspecified)
  19%	-0.3	?	-5	-0.2%	10%	-21%
57) CCCCN1C(=O)C(O)(CC(=O)c2ccco2)c2cc(Br)ccc21 (stereo unspecified)
  8%	-1.4	-8	-8	0.9%	5%	-13%
58) Cn1c(-c2ccccc2F)cc2onc(-c3ccccc3)c2c1=O
  ·	·	5	-14	-11%	-27%	·
59) CCC1Sc2ccccc2N(CC(=O)NC2CC2)C1=O (stereo unspecified)
  18%	-1.5	-1	-2	-1.1%	7%	?
60) Cc1c(CNC2CCCC2)c(C(=O)O)c(C)n1Cc1ccccc1
  0%	1.7	7	0	-0.9%	8%	-11%
61) CC(=O)c1ccc(N2Cc3ccccc3/C2=N\C(=O)Nc2ccc(Cl)cc2)cc1
  -4%	9.7	-46	-7	19%	1%	3%
62) CC(C)c1cc(=O)n2[nH]c(N)nc2n1
  79µM*	?	-9	5	·	9%	3%
